# LANA-nucl inh – inhibitors of KSHV LANA binding to nucleosomes | z-score (test concentration not listed) | 0.3% of 51,000 active | FITC-LANA1-23 / chicken nucleosome fluorescence polarization; hits give low values;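 active = both repeat wells score below -2 in polarization z-score versus plate sample wells, excluding overly bright wells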;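 also: 100 nL library stock added to about 30 µL; numbers are from one replicate; some results filed as inactive read as strong as hits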
#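 Material: Purified chicken nucleosomes with FITC-labelled LANA N-terminal peptide (1-23) | Reagent: 50 nM FITC-LANA1-23 probe | Medium: TEN-BT buffer, pH 7.5 | Times: 10–45 min incubation at room temperature | Detection: Fluorescence polarization | Replication: Duplicates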
# BasE inh – blocks the Acinetobacter baumannii siderophore enzyme BasE; inhibition, % (concentration not given with the values); AID 485350; 0.1% of 84,000 active; purified BasE, fluorescence polarization binding displacement;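 active = both replicates above 25% with normal brightness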;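 also: 0% = negative plate control signal and 100% = positive plate control signal; stock transfer was 100 nL into about 30 µL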
# Starred values were filed as active, the others as inactive; x = no result given; & = joins results of further samples. This is a subset, so the mix of outcomes need not match the whole.
SMILES,LANA-nucl inh,BasE inh
COc1ccc(N)cc1,x,0.2
COC1=C[C@H]2C3=C([C@H]2C1=O)[C@@H](NC(C)=O)CCc1cc(OC)c(OC)c(OC)c13,0.26,-2.3
CCC1C2CC3C4N(C)c5ccccc5C45CC(C2C5O)N3[C@@H]1O (some centres not stated),0.04,0.5
CN1CCN(c2ccc(C(F)(F)F)cc2N)CC1,-1.9,x
CCOC(=O)c1noc2ncnc(N(Cc3ccco3)C3CCN(C)CC3)c12,1.1,-0.6
O=S1(=O)N(Cc2ccccc2)CCCN1Cc1ccc(Cl)cc1,x,-1.4
COCCn1cc(C(=O)O)c2ccccc21,-0.52,3.1
O=C(c1ccccc1)c1cc(Cl)ccc1NC(=O)C(F)(F)F,-0.89,x
O=C1NC(=O)C(C2CCS(=O)(=O)C2)C(=O)N1 (configuration not stated),x,-1.4
ON=C1CC2CCCC(C1)N2Cc1cccs1,0.83,x
O=C1CCCC2C3CCCN4CCCC(CN12)C34 (configuration not stated),-0.47,1.9
Cc1cccc(CN2CCNCC2)c1,x,1.7
COC(=O)C1C2c3ccccc3C(c3ccccc32)C1C(=O)OC (configuration not stated),x,0.3
O=C(c1ccc2ccccc2c1)C12CN3CN(CN(C3)C1)C2,-1,-0.4
COc1ccc2c(c1)[C@]13CCCC[C@@H]1[C@H](C2)N(C)CC3,-0.17&0.35&-0.021,x

# Five compounds drawn at random from those above, as already listed:
SMILES,LANA-nucl inh,BasE inh
CCOC(=O)c1noc2ncnc(N(Cc3ccco3)C3CCN(C)CC3)c12,1.1,-0.6
O=C(c1ccc2ccccc2c1)C12CN3CN(CN(C3)C1)C2,-1,-0.4
COc1ccc2c(c1)[C@]13CCCC[C@@H]1[C@H](C2)N(C)CC3,-0.17&0.35&-0.021,x
CCC1C2CC3C4N(C)c5ccccc5C45CC(C2C5O)N3[C@@H]1O (some centres not stated),0.04,0.5
O=C(c1ccccc1)c1cc(Cl)ccc1NC(=O)C(F)(F)F,-0.89,x

# (cont.)
SMILES,LANA-nucl inh,BasE inh
Cc1c(NC(=O)C(C)OC(=O)Cc2ccccc2)c(=O)n(-c2ccccc2)n1C (configuration not stated),x,0.7
CN1C2CCC1CC(=NOC(=O)c1ccc(F)cc1)C2,-0.64,-0.4
COc1cc(C(=O)CN(C)C2CCCCC2)cc(OC)c1OC,x,1.2
CN[C@@H]1C[C@@H](c2ccc(Cl)c(Cl)c2)c2ccccc21,0.23,x
COc1ccccc1N1CCN(C(=O)C2c3ccccc3C(=O)N3CCC(C)CC23)CC1 (configuration not stated),0.18,0.3
CCCN(CCO)C1CCCC(C)C1 (configuration not stated),-0.77,2.8
CN(C)C(Cc1ccc(C#N)cc1)C(=O)c1ccccc1 (configuration not stated),x,-3.5
CC(=O)N(C1=NCCCS1)c1ccc(C)cc1,-1,0.6
OC(CN1CCC(c2c[nH]c3ccccc23)CC1)C(F)(F)F (configuration not stated),-1.6,x
CCn1cc(C(=O)O)c2ccccc21,-0.21,x
CC[C@@]1(O)C(=O)OCc2c1cc1n(c2=O)-c2cc3ccccc3nc2C1,-0.47,x
CC(C)OC12Oc3ccccc3C=C1N1CCC2CC1 (configuration not stated),-0.55,2.3
OC1(c2ccccc2)CCNC1 (configuration not stated),0.46,0.6
C[C@@H]1CN(C2CCC(C#N)(c3ccc(F)cc3)CC2)CC[C@]1(C(=O)O)c1ccccc1 (some centres not stated),-0.55,0.0
CCOC(=O)c1cc(C(C)(C)C)nc(OC(=O)N(C)C)c1C#N,x,0.1

# Next part, starting with the last 7 of the part before.
SMILES,LANA-nucl inh,BasE inh
OC(CN1CCC(c2c[nH]c3ccccc23)CC1)C(F)(F)F (configuration not stated),-1.6,x
CCn1cc(C(=O)O)c2ccccc21,-0.21,x
CC[C@@]1(O)C(=O)OCc2c1cc1n(c2=O)-c2cc3ccccc3nc2C1,-0.47,x
CC(C)OC12Oc3ccccc3C=C1N1CCC2CC1 (configuration not stated),-0.55,2.3
OC1(c2ccccc2)CCNC1 (configuration not stated),0.46,0.6
C[C@@H]1CN(C2CCC(C#N)(c3ccc(F)cc3)CC2)CC[C@]1(C(=O)O)c1ccccc1 (some centres not stated),-0.55,0.0
CCOC(=O)c1cc(C(C)(C)C)nc(OC(=O)N(C)C)c1C#N,x,0.1
CCC(C)C12CN3CCN(CC(C)(C3)C1O)C2 (configuration not stated),-0.46,-0.7
Cc1c(O)ccc(C(=O)CN2CC(C)OC(C)C2)c1O (configuration not stated),1.6,-0.5
CCOC(=O)c1c(C)n(Cc2ccccc2)c2ccc(OC(C)=O)cc12,x,-2.4
CCCCC/C=C\C/C=C\C/C=C\C/C=C\CCCC(=O)NCC(=O)O,-0.33,0.2
OC[C@@H]1CCCN2CCCCC12 (some centres not stated),0.61,-2.4
O=c1c2ccccc2nc(CO)n1-c1ccc2c(c1)OCO2,x,-5.4
CCOP1(=S)Oc2cc3c(cc2C(C(=O)OC)(C(F)(F)F)O1)OCO3 (configuration not stated),-0.28,-1.7
CCC(=O)Nc1ccc(N2CCN(C)CC2)c(Cl)c1,0.046,1.4
Cc1oc(-c2ccccc2)nc1CN1C(=O)CN=C(c2ccccc2)c2ccccc21,0.2,0.3
CN1C2CCC1CC(OC(=O)CCN1CCCC1)C2 (configuration not stated),0.29,1.6
N#Cc1ccc(NC(=O)CON2C(=O)CCC2=O)cc1Cl,x,-1.2
COc1cc2c(cc1OC)C(C)NCC2 (configuration not stated),-0.072,-0.1
O=C1NC(=O)C(C(CC(=O)c2ccccc2)c2ccccc2)C(=O)N1 (configuration not stated),-0.23,-0.8
CN(C)C(=O)Oc1ccc2ccc(OC(=O)N(C)C)cc2c1,0.12,3.5
CN1C2CCC1CC(OC1c3ccccc3CCc3ccccc31)C2 (configuration not stated),0.25,-2.8
O=C(CNC(=S)N1CC2CC(C1)c1cccc(=O)n1C2)NCc1ccccc1 (configuration not stated),-0.35,3.1
C=Cn1ccnc1P(=S)(c1nccn1C=C)C1CCCCC1,x,0.6
O=C(Cn1c2ccccc2c2cn[nH]c(=O)c21)N1CCC2(CC1)OCCO2,-1.3,-0.6
Cc1c(C#N)c2nc3ccccc3n2c(=O)/c1=C\Nc1ccc(N2CCOCC2)c(Cl)c1,x,8.2
CCOC(=O)C1CCN(Cc2ccccc2)CC1,0.069,-0.4
CCC(=O)c1ccc(OC(=O)N(C)c2ccccc2)cc1,1.4,-2.3
Cc1nn(Cc2ccccc2)c(Cl)c1C(=O)OCC(=O)N(C)C1CCS(=O)(=O)C1 (configuration not stated),x,0.7
CC12CC[C@@H]3C(=O)CCC(O)CC(=O)CC[C@H]3C1(O)CCC2C1=CC(=O)OC1 (some centres not stated),1.1,-1.4
CN[C@@H]1[C@@H](O)[C@@H](O[C@@H]2[C@@H](O)[C@H](O[C@H]3O[C@H]([C@@H](C)NC)CC[C@H]3N)[C@@H](N)C[C@H]2N)OC[C@]1(C)O,-0.27,x
c1cncc(C2=NCCC2)c1,1.5,-4.0
C[C@]12CC[C@H]3[C@@H](CCC4=CC(=O)CC[C@@]43C)[C@@H]1CC[C@@H]2O,-0.55,x
C=CCN1C(=O)/C(=C\c2ccc(N3CCOCC3)cc2C)C(=O)NC1=S,-0.42,-0.6
NP1(=O)C=C(c2ccccc2)OC(c2ccccc2)=C1,x,0.6
CCOP(=S)(Nc1cccc(F)c1)OCC,-0.083,0.7
O=C1/C(=C/c2c(F)cccc2Cl)N2CCC1CC2,-0.86,x
C[N+](C)(C)CC(=O)[O-],-0.19&-0.7,-0.6
Clc1ccccc1CN1CCN(c2cccc3[nH]ccc23)CC1,-0.95,x
O=C(COC(=O)Cc1ccccc1)Nc1ccc(Cl)cn1,x,1.5
C=CCN1CCN(C(=O)Cc2cccc(C)c2)CC1,-0.98,1.5
C[C@]12CC[C@H]3[C@@H](CC[C@]4(O)C[C@@H](O)CC[C@]34C=O)[C@@]1(O)CC[C@@H]2C1=CC(=O)OC1,0.65,-3.1
CNC1CCC(C)CC1 (configuration not stated),x,0.8
CCN1C[C@@]2(COC)C3[C@@H](OC)[C@H]4[C@@H]1[C@@]3(C1C[C@@]3(O)[C@H](OC(=O)c5ccccc5)C1[C@]4(OC(C)=O)[C@@H](O)[C@H]3OC)[C@@H](OC)C[C@H]2O (some centres not stated),0.15,-0.1
N#CC(C#N)=Cc1ccc(N2CCCC2)cc1,0.71,4.3
C=CCn1c(O)c(C=NCC)c(=O)[nH]c1=S,1.6,0.9
CC1CC(C)CN(CC(=O)Nc2cccnc2Cl)C1 (configuration not stated),x,0.5
COc1ccc(N=C2SCCCN2C)cc1,0.49,0.7
COc1cc(COC(=O)N[C@@H](Cc2c[nH]c3ccccc23)C(=O)O)cc(OC)c1,x,1.9
CC1(C)CC(=O)C(C2(O)C(=O)NC(=O)NC2=O)=C(O)C1,-0.98,0.7
C[N+]1(C)CCN(c2ccccc2)CC1,-0.3,x
COc1cccc(N2C(=O)/C(=C/c3ccsc3)C(=O)NC2=S)c1,x,-4.6
C=C1C2CC3(C[C@H]4C5C6(C3CC2=O)C4[N+]([O-])(CC)C[C@]5(C)CC[C@@H]6O)[C@@H]1O (some centres not stated),0.99,-2.1
Oc1ccc(C2(c3ccc(O)cc3)CCCCC2)cc1,x,3.8
O=C(Cc1cccc(F)c1)N1CCN(CC(=O)N2CCCC2)CC1,x,1.1
O=C1OCCC1Sc1ccc(Cl)cc1 (configuration not stated),0.15,1.9
Clc1ccc(CN2CCN(Cc3ccccc3)CC2)cc1,-0.96,0.8
CN1CCC(NC2C3CC4CC(C3)CC2C4)CC1 (configuration not stated),-0.12,0.2
C=CCN1CCN(C(=O)Cc2cccs2)CC1,0.31,-0.7
O=C1C=C2C=C[C@@H]3C[C@@]2(O1)[C@H]1CCCCN31,1.4,0.1
O=C1C(=Cc2ccco2)C(=O)N(c2ccccc2)C(=O)N1c1ccccc1,0.51,-2.3
N[C@H]1C[C@@H]1c1ccccc1,0.41,x
CCOc1ccccc1NC1=NC(C)CS1 (configuration not stated),x,0.9
CCn1nc(-c2ccccc2)nc2c(=O)n(C)c(=O)nc1-2,-9.3*,7.5
CCN1C(=O)N(c2ccccc2)P(=S)(N2CCCC2)c2cc3c(cc21)OCCO3 (configuration not stated),x,0.7
O=C1C=C2C=C[C@@H]3CC2(O1)[C@H]1CCCCN31,-0.78,1.4
c1ccc(Cn2ccnc2)cc1,0.5,x
# (continued)
SMILES,LANA-nucl inh,BasE inh
O=S(=O)(c1ccc(F)cc1)N1CN2CCN(C2)C1,2.7,-2.4
CCN1C(=O)C(=Cc2ccc(O)c(I)c2)C(=O)N(CC)C1=S,0.86,-1.6
CN1Cc2c(ccc3c2OCO3)[C@@H]2[C@H]1c1cc3c(cc1C[C@@H]2O)OCO3,0.62,-20
O=C(O)c1cn(Cc2ccc(Cl)cc2)c2ccccc12,-0.17,x
O=C1NCN(c2ccccc2)C12CCN(CC1COc3ccccc3O1)CC2 (configuration not stated),0.035,x
CCOc1cccc(C(O)CNC)c1 (configuration not stated),0.38,0.1
COc1c2c(cc3c1OCO3)CCN(C)C2,0.13,-0.4
CC1=C(O)C(=O)C=C2C1=CC=C1[C@@]2(C)CC[C@@]2(C)[C@@H]3C[C@](C)(C(=O)O)CC[C@]3(C)CC[C@]12C,1.9,-3.5
Cc1cccc(C)c1NC1=NCCS1,x,-0.7
O=C1CC(c2cnc[nH]2)C2(CCCCC2)O1 (configuration not stated),0.45,1.6
Cc1ccc2c(c1)CNc1ccccc1O2,-0.42,1.1
CC(C)(C)n1cc(C(=O)c2ccccc2O)cn1,0.096,x
Cc1ccc(N2C(=O)c3cc(N(C)C)ccc3P2(=O)N2CCOCC2)cc1 (configuration not stated),x,-6.2
CCN1C[C@]2(C)CC[C@H](OC)[C@]34C2[C@H](OC(C)=O)C2(OCO[C@@]25CC(OC)C2C[C@]3(O)C5[C@H]2OC)[C@@H]14 (some centres not stated),0.29,-1.9
NC(=O)CCN1CCCCC1c1cccnc1 (configuration not stated),1.2,-2.9
O=[N+]([O-])c1cc([As](=O)(O)O)ccc1O,0.48&2.4&-0.032,-3.6&0.3
CCCCC/C=C\C/C=C\C/C=C\C/C=C\CCCC(=O)Nc1ccc(O)cc1,0.32,x
CCN(CC)C(=O)c1ccc(NC(=S)NC2CC2)cc1,x,1.8
Cc1ccc2occ(CN3CC=C(c4ccc(F)cc4)CC3)c(=O)c2c1,-0.4,-2.6
O=C1CC(=O)N(Cc2ccc(F)cc2)C(=O)N1,-0.31,3.8
Cc1cc(OC(=O)N(C)C)nc(SCc2c(F)cccc2Cl)n1,0.35,0.9
CN(C)[C@@H]1C(=O)C(C(N)=O)=C(O)[C@@]2(O)C(=O)C3=C(O)c4c(O)ccc(Cl)c4[C@@](C)(O)[C@H]3C[C@@H]12,-0.096&0.58&0.65,-3.1&-3.1
Clc1ccc(-c2ccc(Cl)cc2)cc1,x,1.4
CC(=O)N1CN2CN(C1)CN(C(C)=O)C2,0.13,-0.5
CCN(CC)P1(=O)OC(C)(C)CC1(C)O (configuration not stated),x,3.7
O=c1c2ccccc2nc(CN2CCCCC2)n1-c1ccccc1,1.7,-2.9
CNC(C)[C@H](O)c1ccccc1 (some centres not stated),0.14,-1.4
CC[C@@]1(O)C[C@H](O[C@H]2C[C@H](N(C)C)[C@H](O)[C@H](C)O2)c2c(cc3c(c2O)C(=O)c2c(O)cccc2C3=O)[C@H]1C(=O)OC,2.2,-2.1
CN1CCN(C(=O)COc2cccc3ccccc23)CC1,1.1,1.8
CCc1ccccc1NC(=O)N1Cc2ccccc2-n2cccc2C12CCN(C(C)=O)CC2,0.56,0.1
O=C(COc1ccccc1)N1CCN(Cc2ccc(Br)cc2)CC1,0.41,0.9
C[C@]12CC[C@H](O)C[C@H]1CC[C@@H]1[C@@H]2C[C@@H](O)[C@]2(C)[C@@H](C3=CC(=O)OC3)CC[C@]12O,0.21,1.8
